Screens from PubChem BioAssay.
A1 apoptosis 2 – A1 inhibitors via caspase activation, primary screen, cell-based, luminescence, HTS, two replicates. MEF A1-2A-BIM cells, caspase-Glo luminescence, 3 h; percent of clofoctol response, DMSO zero. caspase activation, % (concentration not given with the values). 24,000 tested, under 10 active; in the data active means caspase activation above about 5.9%; inconclusive means no clear call, values can overlap the other calls; inactive means below about 2.2%;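 further: wells of about 30 µL received 50 nL stock; the first replicate is given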
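Evaluation: Caspase-3/7 activity from luminescence increase | Assay system: A1-2A-BIM mouse embryonic fibroblasts | Quantity: 2500 MEF cells/well | Medium: RPMI-1640 plus 10% FBS | Detection: Caspase-Glo 3/7 luminescence, 1 h at room temperature | Dosing: 50 nL compound per well, pinned | Timing: Cells settled overnight, compound exposure 3 h at 37 °C, 5% CO2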
* hit, by the source's call; u = inconclusive.

SMILES	A1 apoptosis 2
C[C@@H]1CCCCO[C@H](CN(C)Cc2ccc(C(=O)O)cc2)[C@@H](C)CN([C@H](C)CO)C(=O)c2cc(NC(=O)C3CCCCC3)ccc2O1	-0.2
COc1ccc(S(=O)(=O)Nc2ccc3c(c2)C(=O)N([C@@H](C)CO)C[C@H](C)[C@H](CN(C)Cc2ccc(C(F)(F)F)cc2)O3)cc1	0.5
CC(C)NC(=O)Nc1ccc2c(c1)C(=O)N([C@H](C)CO)C[C@H](C)[C@@H](CN(C)Cc1ccc(C(=O)O)cc1)OCCCC[C@@H](C)O2	0.9
C[C@@H]1CCCCO[C@@H](CN(C)S(=O)(=O)c2cccs2)[C@@H](C)CN([C@H](C)CO)C(=O)c2cc(NC(=O)Cc3ccccc3)ccc2O1	-1.9
C[C@H](CO)N1C[C@H](C)[C@H](CN(C)S(=O)(=O)c2cccs2)OCCCC[C@H](C)Oc2ccc(NS(=O)(=O)c3ccccc3)cc2C1=O	-0.9
C[C@@H]1CN([C@H](C)CO)C(=O)c2cc(NC(=O)CCC(F)(F)F)ccc2O[C@@H]1CN(C)C(=O)Nc1ccc(F)cc1	-1.1
C[C@@H]1CN([C@@H](C)CO)C(=O)c2cc(NC(=O)Cc3ccccc3)ccc2O[C@@H](C)CCCCO[C@@H]1CN(C)Cc1ccc2c(c1)OCO2	-0.5
COCCOC(=O)N1C(=O)[C@@]2(c3cc(C#CCC(C(=O)OC)C(=O)OC)ccc31)[C@H](c1ccc(OCCO)cc1)N1[C@H](c3ccccc3)[C@H](c3ccccc3)OC(=O)[C@H]1[C@@H]2C(=O)N1CCN(c2ncccn2)CC1	0.6
CN(CCO)c1ccc(/C=N/NC(=O)CCCCCC(=O)NO)cc1	0.4
C[C@@H]1CCCCO[C@H](CN(C)C(=O)c2ccccc2)[C@@H](C)CN([C@H](C)CO)C(=O)c2cc(NC(=O)Nc3ccc(C(F)(F)F)cc3)ccc2O1	0.5
COc1ccc(CN(C)C[C@H]2Oc3c(NC(=O)Nc4c(C)noc4C)cccc3C(=O)N([C@@H](C)CO)C[C@H]2C)cc1	-0.3
C[C@@H]1CN([C@@H](C)CO)C(=O)c2cc(NC(=O)C3CCCCC3)ccc2O[C@@H](C)CCCCO[C@H]1CN(C)C(=O)Nc1ccccc1	-0.2
Cc1ccc(S(=O)(=O)N(C)C[C@@H]2OCCCC[C@H](C)Oc3ccc(NS(=O)(=O)c4ccc(F)cc4)cc3C(=O)N([C@@H](C)CO)C[C@H]2C)cc1	-1.3
C[C@@H]1CCCCO[C@H](CN(C)C(=O)CCC(F)(F)F)[C@@H](C)CN([C@@H](C)CO)C(=O)c2cc(NC(=O)c3ccncc3)ccc2O1	0.3
COc1ccc(S(=O)(=O)N(C)C[C@H]2Oc3ccc(NC(=O)NC(C)C)cc3C(=O)N([C@@H](C)CO)C[C@@H]2C)cc1	-0.1
Cc1noc(C)c1S(=O)(=O)Nc1cccc2c1O[C@@H](CN(C)Cc1ccccc1)[C@@H](C)CN([C@@H](C)CO)C2=O	0.4
C[C@H](CO)N1C[C@H](C)[C@H](CN(C)S(=O)(=O)c2ccc(Cl)cc2)Oc2ccc(NC(=O)CCN3CCOCC3)cc2C1=O	0.7
COc1ccc(CN(C)C[C@@H]2OCCCC[C@H](C)Oc3ccc(NC(=O)Nc4ccccc4)cc3C(=O)N([C@@H](C)CO)C[C@H]2C)cc1	-0.8
COc1ccc(CN(C)C[C@H]2Oc3ccc(NC(=O)Nc4c(C)noc4C)cc3C(=O)N([C@H](C)CO)C[C@@H]2C)cc1	1.0
Cc1noc(C)c1S(=O)(=O)Nc1cccc2c1O[C@H](CN(C)C(=O)Nc1ccc(C(F)(F)F)cc1)[C@H](C)CN([C@@H](C)CO)C2=O	-0.1
C[C@@H]1CN([C@@H](C)CO)C(=O)c2cccc(NS(=O)(=O)c3ccccc3)c2O[C@H]1CN(C)S(=O)(=O)c1ccccc1	0.2
CNC[C@H]1Oc2ccc(NS(=O)(=O)c3cccs3)cc2C(=O)N([C@H](C)CO)C[C@H]1C	-0.1
C[C@@H]1CN([C@@H](C)CO)C(=O)c2cc(NS(=O)(=O)c3cn(C)cn3)ccc2O[C@@H](C)CCCCO[C@@H]1CN(C)Cc1ccc2c(c1)OCO2	-0.9
C[C@@H]1CCCCO[C@@H](CN(C)CC2CC2)[C@@H](C)CN([C@H](C)CO)C(=O)c2cc(NC(=O)c3ccncc3)ccc2O1	0.1
C[C@H]1CCCCO[C@H](CN(C)Cc2ccc3c(c2)OCO3)[C@@H](C)CN([C@@H](C)CO)C(=O)c2cc(N(C)C)ccc2O1	0.1
CNC[C@H]1Oc2ccc(NC(=O)Nc3ccc(C(F)(F)F)cc3)cc2C(=O)N([C@@H](C)CO)C[C@H]1C	-0.8
C[C@H]1CN([C@@H](C)CO)C(=O)CCCn2nncc2CO[C@@H]1CN(C)C(=O)c1ccccc1	0.5
C[C@@H]1CCCCO[C@@H](CN(C)S(=O)(=O)c2ccc(Cl)cc2)[C@@H](C)CN([C@@H](C)CO)C(=O)c2cc(NS(=O)(=O)c3cn(C)cn3)ccc2O1	-0.4
CNC[C@H]1Oc2ccc(NC(=O)Nc3ccc(C(F)(F)F)cc3)cc2CC(=O)N([C@H](C)CO)C[C@@H]1C	-0.1
CCCN(C)C[C@@H]1OCCCC[C@@H](C)Oc2ccc(NS(=O)(=O)c3cccs3)cc2C(=O)N([C@@H](C)CO)C[C@@H]1C	-0.2
C[C@H]1CCCCO[C@@H](CN(C)S(=O)(=O)c2ccc(Cl)cc2)[C@@H](C)CN([C@@H](C)CO)C(=O)c2cc(NS(=O)(=O)c3cn(C)cn3)ccc2O1	-0.7
C[C@@H]1CN([C@H](C)CO)C(=O)Cc2cc(NC(=O)Cn3cnnn3)ccc2O[C@H]1CN(C)C(=O)Nc1cccc2ccccc12	-0.2
C[C@@H]1CCCCO[C@@H](CN(C)C(=O)NC2CCCCC2)[C@H](C)CN([C@@H](C)CO)C(=O)c2cc(NC(=O)NC3CCCCC3)ccc2O1	-0.2
CCO[C@@H]1OC(C(=O)Nc2ccccc2)=C[C@H](c2coc3ccccc3c2=O)[C@H]1CCCO	0.3
C[C@H](CO)N1C[C@H](C)[C@@H](CN(C)S(C)(=O)=O)OCCCC[C@H](C)Oc2ccc(NC(=O)Nc3ccc4c(c3)OCO4)cc2C1=O	0.0
COc1ccc(S(=O)(=O)Nc2ccc3c(c2)C(=O)N([C@@H](C)CO)C[C@H](C)[C@H](CN(C)S(=O)(=O)c2ccc(F)cc2)OCCCC[C@@H](C)O3)cc1	0.1
C[C@@H]1CN([C@@H](C)CO)C(=O)c2cccc(NC(=O)C3CC3)c2O[C@@H]1CN(C)S(=O)(=O)c1ccccc1	-0.4
COc1ccc(CN(C)C[C@H]2Oc3c(NC(=O)c4ccc(-c5nccs5)cc4)cccc3C(=O)N([C@@H](C)CO)C[C@@H]2C)cc1	-0.8
C[C@H](CO)N1C[C@H](C)[C@H](CN(C)Cc2ccc(-c3ccccc3)cc2)Oc2ccc(NC(=O)Nc3ccc(F)cc3)cc2CC1=O	0.0
COC(=O)C1=C/c2ccccc2C(C)N(Cc2ccc(OC)cc2)/C=C\1C(=O)OC (stereo not drawn)	1.2
C[C@@H]1CCCCO[C@H](CN(C)C(=O)NC2CCCCC2)[C@@H](C)CN([C@H](C)CO)C(=O)c2cc(NS(=O)(=O)c3cccs3)ccc2O1	0.3
CNC[C@@H]1OCCCC[C@@H](C)Oc2ccc(NS(=O)(=O)c3c(C)noc3C)cc2C(=O)N([C@@H](C)CO)C[C@H]1C	-2.0
C[C@H](CO)N1C[C@H](C)[C@H](CN(C)Cc2ccncc2)Oc2ncc(C#CCC3CCCCC3)cc2C1=O	u
COc1ccc(NC(=O)N(C)C[C@H]2Oc3ccc(NC(=O)NC4CCCCC4)cc3C(=O)N([C@H](C)CO)C[C@@H]2C)cc1	-0.5
C[C@H]1CN([C@@H](C)CO)C(=O)Cc2cc(NC(=O)C3CCCCC3)ccc2O[C@H]1CN(C)Cc1ccncc1	-0.7
C[C@@H]1CN([C@@H](C)CO)C(=O)Cc2cc(NC(=O)Cc3cn(C)c4ccccc34)ccc2O[C@@H]1CN(C)C(=O)NC1CCCCC1	-0.7
C[C@@H]1CN([C@H](C)CO)C(=O)c2cc(NS(C)(=O)=O)ccc2O[C@H]1CN(C)S(=O)(=O)c1cn(C)cn1	-2.0
C[C@H]1CN([C@@H](C)CO)C(=O)c2cccc(NC(=O)c3cnccn3)c2O[C@@H]1CN(C)C(=O)Nc1ccc2c(c1)OCO2	1.4
COc1ccc(S(=O)(=O)N(C)C[C@H]2Oc3ccc(NC(=O)Nc4ccc(C(F)(F)F)cc4)cc3CC(=O)N([C@H](C)CO)C[C@@H]2C)cc1	1.8
C[C@@H]1CN([C@H](C)CO)C(=O)CCCn2nncc2CO[C@H]1CN(C)S(=O)(=O)c1ccccc1	0.3
CC(C)NC(=O)Nc1ccc2c(c1)C(=O)N([C@H](C)CO)C[C@H](C)[C@@H](CN(C)S(=O)(=O)c1ccccc1)OCCCC[C@H](C)O2	1.8
C[C@H]1CN([C@@H](C)CO)C(=O)c2cc(NC(=O)Cc3ccccc3)ccc2O[C@@H]1CN(C)Cc1ccc(C(F)(F)F)cc1	-0.3
COc1ccc(S(=O)(=O)N(C)C[C@H]2Oc3c(NS(=O)(=O)c4cn(C)cn4)cccc3C(=O)N([C@@H](C)CO)C[C@@H]2C)cc1	-0.3
COc1ccc(NC(=O)Nc2cccc3c2O[C@@H](CN(C)S(=O)(=O)c2ccc(Cl)cc2)[C@H](C)CN([C@H](C)CO)C3=O)cc1	1.3
Cc1ccc(S(=O)(=O)Nc2ccc3c(c2)C(=O)N([C@@H](C)CO)C[C@H](C)[C@@H](CN(C)C)OCCCC[C@@H](C)O3)cc1	1.0
C[C@@H]1CN([C@@H](C)CO)C(=O)c2cc(NC(=O)Nc3ccc(C(F)(F)F)cc3)ccc2O[C@@H](C)CCCCO[C@@H]1CN(C)C	-0.2
C[C@@H]1CN([C@H](C)CO)C(=O)Cc2cc(NC(=O)c3ccncc3)ccc2O[C@H]1CN(C)S(=O)(=O)c1ccc(F)cc1	0.2
Cc1noc(C)c1NC(=O)Nc1ccc2c(c1)C(=O)N([C@@H](C)CO)C[C@H](C)[C@H](CN(C)C(=O)NC1CCCCC1)O2	1.8
C[C@@H]1CN([C@@H](C)CO)C(=O)Cc2cc(NC(=O)Cn3cnnn3)ccc2O[C@@H]1CN(C)C(=O)NC1CCCCC1	-2.1
C[C@H]1CN([C@@H](C)CO)C(=O)c2cccc(NS(=O)(=O)c3cccs3)c2O[C@@H]1CN(C)Cc1ccc(-c2ccccc2)cc1	0.2

Reformatted bar-delimited: nine of the compounds above.
Molecule | A1 apoptosis 2
C[C@H]1CN([C@@H](C)CO)C(=O)c2cc(NC(=O)Cc3ccccc3)ccc2O[C@@H]1CN(C)Cc1ccc(C(F)(F)F)cc1 | -0.3
COc1ccc(S(=O)(=O)N(C)C[C@H]2Oc3c(NS(=O)(=O)c4cn(C)cn4)cccc3C(=O)N([C@@H](C)CO)C[C@@H]2C)cc1 | -0.3
COc1ccc(NC(=O)Nc2cccc3c2O[C@@H](CN(C)S(=O)(=O)c2ccc(Cl)cc2)[C@H](C)CN([C@H](C)CO)C3=O)cc1 | 1.3
Cc1ccc(S(=O)(=O)Nc2ccc3c(c2)C(=O)N([C@@H](C)CO)C[C@H](C)[C@@H](CN(C)C)OCCCC[C@@H](C)O3)cc1 | 1.0
C[C@@H]1CN([C@@H](C)CO)C(=O)c2cc(NC(=O)Nc3ccc(C(F)(F)F)cc3)ccc2O[C@@H](C)CCCCO[C@@H]1CN(C)C | -0.2
C[C@@H]1CN([C@H](C)CO)C(=O)Cc2cc(NC(=O)c3ccncc3)ccc2O[C@H]1CN(C)S(=O)(=O)c1ccc(F)cc1 | 0.2
Cc1noc(C)c1NC(=O)Nc1ccc2c(c1)C(=O)N([C@@H](C)CO)C[C@H](C)[C@H](CN(C)C(=O)NC1CCCCC1)O2 | 1.8
C[C@@H]1CN([C@@H](C)CO)C(=O)Cc2cc(NC(=O)Cn3cnnn3)ccc2O[C@@H]1CN(C)C(=O)NC1CCCCC1 | -2.1
C[C@H]1CN([C@@H](C)CO)C(=O)c2cccc(NS(=O)(=O)c3cccs3)c2O[C@@H]1CN(C)Cc1ccc(-c2ccccc2)cc1 | 0.2

(more compounds)
SMILES	A1 apoptosis 2
C[C@@H]1CN([C@@H](C)CO)C(=O)CCCn2cc(nn2)CO[C@H]1CN(C)S(=O)(=O)c1ccc(Cl)cc1	0.5
C[C@@H]1CN([C@@H](C)CO)C(=O)Cc2cc(NC(=O)CCC(F)(F)F)ccc2O[C@H]1CN(C)C(=O)Nc1ccc(F)cc1	-0.8
C[C@@H]1CN([C@@H](C)CO)C(=O)c2cc(NC(=O)CCN3CCOCC3)ccc2O[C@H]1CN(C)C(=O)Nc1ccc(C(F)(F)F)cc1	1.0
C[C@@H]1CN([C@H](C)CO)C(=O)c2cc(NS(=O)(=O)c3cn(C)cn3)ccc2O[C@@H](C)CCCCO[C@@H]1CN(C)Cc1ccncc1	1.1
C[C@@H]1CCCCO[C@@H](CN(C)C)[C@H](C)CN([C@H](C)CO)C(=O)c2cc(NS(=O)(=O)c3cn(C)cn3)ccc2O1	-0.2
C[C@H]1CN([C@@H](C)CO)C(=O)Cc2cc(NS(=O)(=O)c3cccs3)ccc2O[C@@H]1CN(C)Cc1ccc(C(F)(F)F)cc1	0.4
C[C@@H]1CN([C@@H](C)CO)C(=O)c2cccc(NS(=O)(=O)c3ccc(Cl)cc3)c2O[C@@H]1CN(C)S(=O)(=O)c1ccccc1	-1.3
Cc1noc(C)c1NC(=O)Nc1ccc2c(c1)C(=O)N([C@H](C)CO)C[C@H](C)[C@@H](CN(C)Cc1ccc3c(c1)OCO3)OCCCC[C@H](C)O2	0.3
Cc1noc(C)c1NC(=O)N(C)C[C@@H]1Oc2ccc(NC(=O)c3ccncc3)cc2C(=O)N([C@@H](C)CO)C[C@H]1C	0.5

These rows are one share of the data (hit frequency here may not be typical).
